High-throughput results deposited in PubChem by Center for Chemical Genomics, University of Michigan.
CDC25B CDK2 inh – human CDC25B-CDK2/CyclinA binding inhibition | P30305+P24941 | HTRF CDC25B-CDK2/CyclinA binding, anti-His/anti-Flag; active compounds read high | z-score (test concentration not listed) | 94,000 compounds, 0.72% hits;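 further: score is relative to mean and SD of negative controls; strong numbers were not always called active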
TAR Tat displ – HIV-1 TAR-Tat binding disruption; HIV-1 TAR RNA, Tat peptide displacement FRET; active compounds read high; z-score (concentration not given with the values); 100,000 compounds, 0.6% hits;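 further: score is relative to mean and SD of negative controls; some compounds called inactive have numbers as strong as hits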
Starred values were filed as active, the others as inactive; nt = no result given.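 How the source made its calls: active means z-score from 3 up in half or more of its runs; inactive means the rest.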

SMILES	CDC25B CDK2 inh	TAR Tat displ
COc1cccc2c1NC(C(=O)O)C1CC=CC21 (stereo not drawn)	0.71	42*
CCN1CCCC1CNC(=O)c1cc2ccc3cccnc3c2[nH]1 (stereo not drawn)	nt	0.19
O=S1(=O)CC(O)C(N2CCCCC2)C1 (stereo not drawn)	-0.09	nt
COc1ccc(NC(=O)c2cc(=O)sc3nc4ccccc4n23)cc1	nt	-1.1
Cc1cc(C)c(NS(=O)(=O)c2ccc(CN3C(=O)c4cccnc4C3=O)s2)c(C)c1	nt	-0.72
COc1ccccc1C1NC(=S)NC2=C1CCc1ccccc12 (stereo not drawn)	-0.93	nt
CCCc1cnc(N2CCN(S(=O)(=O)c3sc4ccc(Cl)cc4c3C)CC2)nc1	-2.1	nt
CCOC(=O)N1CCC(NS(=O)(=O)c2ccc(Cl)s2)CC1	-1.8	nt
Cn1c(=O)c2c(ncn2Cc2ccc(Cl)cc2)n(C)c1=O	0.37	1.1
CC(C)(C)NC(=O)N1c2ccccc2Sc2ccccc21	-3.8	-0.22
CCc1ccc(CNc2nc3nc4c(c(=O)n3[nH]2)CCC4)cc1	-1.9	0.18
CSc1ccccc1C(=O)Nc1nnc2n1CCS2	nt	-0.5

Another view of some results above:
Structure,CDC25B CDK2 inh,TAR Tat displ
CCN1CCCC1CNC(=O)c1cc2ccc3cccnc3c2[nH]1 (stereo not drawn),nt,0.19
CCOC(=O)N1CCC(NS(=O)(=O)c2ccc(Cl)s2)CC1,-1.8,nt
COc1ccc(NC(=O)c2cc(=O)sc3nc4ccccc4n23)cc1,nt,-1.1

Looked up above.
TAR Tat displ, `COc1ccc(NC(=O)c2cc(=O)sc3nc4ccccc4n23)cc1` : -1.1
TAR Tat displ, `Cn1c(=O)c2c(ncn2Cc2ccc(Cl)cc2)n(C)c1=O` : 1.1
TAR Tat displ, `CC(C)(C)NC(=O)N1c2ccccc2Sc2ccccc21` : -0.22
CDC25B CDK2 inh, `CCCc1cnc(N2CCN(S(=O)(=O)c3sc4ccc(Cl)cc4c3C)CC2)nc1` : -2.1

Next section:
SMILES	CDC25B CDK2 inh	TAR Tat displ
N#CC(=C1SCCCS1)S(=O)(=O)c1ccc(Cl)cc1	0.73	nt
Cn1c(=O)oc2cc(S(=O)(=O)CCC(=O)NCc3cccs3)ccc21	nt	0.27
Cc1nc2c3ccccc3n3c(CCCC(=O)NCC(C)c4ccccc4)nnc3n2n1 (stereo not drawn)	-1.1	-1.1
Cc1cc(C)c2c3c1C1C=CCC1CN3C(C(=O)O)C1CC=CC21 (stereo not drawn)	-0.12	-12
COC(=O)c1cc(S(=O)(=O)Nc2ccc(F)c(F)c2)cn1C	nt	0.46
COC(=O)c1scc(C)c1NC(=S)OC	-2.3	nt
CCCN1C(=O)C(=O)c2cc(C)ccc21	-0.4	-0.9
N#Cc1c(N)nc2c(c1-c1ccc3c(c1)OCO3)CCCCCC2	-0.19	nt
COc1ccccc1Nc1nc(C)nc2c1CCC2	0.93	-0.4
O=C(Cn1c(=O)sc2ccccc21)Nc1ccc2c(c1)OCCO2	-0.91	nt
CCn1c(C)ccc(-c2noc(CCC(=O)Nc3nccs3)n2)c1=O	-3.1	1.6
O=C(CSc1nccn(-c2ccccc2)c1=O)Nc1ccc(Cl)cc1	nt	0.39
Cc1cc(C)c2c(C)c(C(=O)NCC(c3ccco3)N3CCCC3)oc2c1 (stereo not drawn)	-0.17	0.39
CCOC(=O)C(=C/C=C(/c1ccccc1)N(C)C)C(=O)OCC	-1.5	nt
Cc1c(C)c2c(cc(C)c3c(-c4ccc(F)cc4)coc32)oc1=O	-0.38	nt
CCOc1cccc(=O)c2c(C)n(CC3CCCO3)c(C)c12 (stereo not drawn)	-2.8	-11
COc1ccc(OC)c(C2CC(=O)Nc3cc4c(cc32)OCO4)c1 (stereo not drawn)	-1.3	nt
OC(CSc1nncn1-c1ccccc1)C(F)(F)F (stereo not drawn)	-0.83	nt
Cc1csc2nc(CNC(=O)C3CCCCC3)cn12	-0.67	-0.31
Cc1ccc(OS(=O)Nc2cccc3nccnc23)cc1 (stereo not drawn)	-1.1	nt
O=C(CSc1nc2ccccc2[nH]1)Nc1ccccc1	-1.6	nt
Fc1ccc(-c2nc3ncccn3c2NCc2ccccc2)cc1	nt	1.6
Cc1cc(-c2noc(COc3cccc(Cl)c3)n2)c2ccccc2n1	0.44	-1.8
COc1ccc2c(c1)CN(c1ccc(Cl)cc1)CO2	-2.2	nt
CC(C(=O)N1CCCCC1)n1ncn2cccc2c1=O (stereo not drawn)	0.31	nt
COc1ccc(C2CC(=O)Nc3c2cnn3-c2nc3ccccc3s2)c(OC)c1 (stereo not drawn)	nt	0.82
Cc1cccc2c1nc1s/c(=C\c3ccc(-c4ccccc4F)o3)c(=O)n12	-2.8	nt
CC(=O)N1CCSc2ccc(S(=O)(=O)NCCC(C)C)cc21	nt	0.57
CC#CCCCC(=O)Nc1nc2ccc(OC)cc2s1	-0.15	-0.26
Cc1ccc(C(=O)CSc2ccc(C(F)(F)F)cn2)cc1	-0.17	nt
CCOc1ccc(S(=O)(=O)c2cn(C)c3ccc(F)cc3c2=O)cc1	-1.7	0.98
O=C(CSc1nc2ccc(NC(=O)C3CCCCC3)cc2s1)Nc1nccs1	-1.4	1.2
Cc1ccc2oc(-c3ccc(C(C)C)cc3)c(O)c(=O)c2c1	-1.6	0.86
Cc1ccc(C)c(OCC(O)Cn2c(C)nc3ccccc32)c1 (stereo not drawn)	-0.16	2.3
O=C(NCc1ccccc1)C1Sc2nnc(-c3ccccc3)n2NC1c1ccc(Cl)cc1 (stereo not drawn)	-1.9	1.7
O=C1CCCC2=C1C(c1cccc(Cl)c1)n1nc(SCc3ccccc3)nc1N2 (stereo not drawn)	-0.82	nt

Next section; the last 3 above are carried over.
SMILES	CDC25B CDK2 inh	TAR Tat displ
Cc1ccc(C)c(OCC(O)Cn2c(C)nc3ccccc32)c1 (stereo not drawn)	-0.16	2.3
O=C(NCc1ccccc1)C1Sc2nnc(-c3ccccc3)n2NC1c1ccc(Cl)cc1 (stereo not drawn)	-1.9	1.7
O=C1CCCC2=C1C(c1cccc(Cl)c1)n1nc(SCc3ccccc3)nc1N2 (stereo not drawn)	-0.82	nt
O=C1CCc2cc(S(=O)(=O)N3CCCC3C(=O)N3CCN(c4ccccc4F)CC3)ccc2N1 (stereo not drawn)	1.9	nt
CC(C)NC(=O)C1=Cc2cc(Br)ccc2OC=C1	-2.1	0.42
CCCN(CCC)C(=O)Cn1cnc2onc(C)c2c1=O	nt	1.4
Cc1ccc(CN2C(=O)C3C(c4ccc(C)cc4)OC4(C(=O)c5ccccc5C4=O)C3C2=O)cc1 (stereo not drawn)	-1.2	nt
CC(=O)Nc1nonc1-c1nnc(SCC(=O)Nc2cc(C)cc(C)c2)n1C	-0.56	0.26
c1nc(N2CCCC2)c2nc3n(c2n1)CCCCC3	-1.2	1.5
Cc1cc(NS(=O)(=O)c2ccc(NC(=O)C(C)(C)C)cc2)no1	-1.4	nt
COc1ccccc1-c1nn2c(Cn3cnc4ccccc43)nnc2s1	-1.3	2.3
c1ccc2sc(NC3=NCN(Cc4ccc5c(c4)OCO5)CN3)nc2c1	-1.6	2.2
O=C(COCc1cc(-c2ccc3c(c2)OCO3)on1)NC1CCCc2ccccc21 (stereo not drawn)	nt	-0.12
CCN(CC)c1ncnc2c1sc1nc(C)c3c(c12)CC(C)(C)OC3	-1.6	0.96
O=C(NCc1ccc(Cl)cc1)C1=Cc2sc3c(c2CS1)CCCC3	nt	-2.8
Cc1cc(C)c2c(-n3cccc3)nn(CC(=O)N3CCN(c4ncccn4)CC3)c2n1	nt	1
Cc1ccc(-c2noc3ncnc(Nc4ccc5c(c4)OCCO5)c23)cc1	nt	2
CCc1nc(C)cn1S(=O)(=O)c1cc(C)c(OC)cc1C	0.31	1.8
CCOC(=O)C(C#N)C1(c2c(C)[nH]n(-c3ccccc3)c2=O)C(=O)N(c2ccccc2)N=C1C (stereo not drawn)	-1.6	nt
O=C(CN1C(=O)COc2ccc(S(=O)(=O)N3CCCC3)cc21)NC1CC1	-0.2	nt
COC(=O)c1ccc2c(=O)[nH]c3c(C(=O)NCC4CCCO4)sc(=S)n3c2c1 (stereo not drawn)	nt	7.9
COCc1cc(=O)n2[nH]cc(-c3ccc(Cl)cc3)c2n1	0.01	3.9
CCOc1ccc2nc(NC(=O)CSc3nc(SC)ns3)sc2c1	-1.1	-0.08
Cc1ncc(-c2ccc(C)c(S(=O)(=O)Nc3ccc4c(c3)OCO4)c2)o1	nt	1.3
Cc1ccc2[nH]c(=O)c3cc(C(=O)N(CCC(C)C)Cc4ccco4)sc3c2c1	-2.2	nt
Cc1cc(C)c2[nH]c(CSc3nnc(NC(=O)c4ccc(F)cc4)s3)cc(=O)c2c1	nt	2
CC1=C(C(=O)OC(C)C)C(c2cccc(F)c2)n2ncnc2N1 (stereo not drawn)	-0.61	nt
COc1ccc(C2CC(c3cccs3)Nc3nc4ccccc4n32)cc1 (stereo not drawn)	-0.45	-0.91
CCOCCCNc1ncnc2c1cnn2-c1ccc(F)cc1	nt	0.05
COc1ccc(CNc2oc(/C=C/c3cccc(OC)c3)nc2C#N)cc1	0.35	-2.1
NC(=O)C1(N2CCCCC2)CCN(C(=O)Nc2cccc(F)c2)CC1	-1.4	nt
C=CCn1c(C)nc2c(cnn2-c2ccccc2)c1=O	-1.7	-0.54
O=C1C2C(c3ccccc3)OC3(C(=O)c4ccccc4C3=O)C2C(=O)N1c1ccccc1Cl (stereo not drawn)	-1.1	1.4
COCCCNc1ncnc2c1cnn2-c1ccccc1	nt	0.4
O=c1[nH]nc2c3c(cccc13)-c1ccccc1-2	-2	nt
CC(=O)Nc1ccccc1OCCOc1ccccc1NC(C)=O	-1.6	nt
CCSc1ncc(Cl)c(C(=O)N(Cc2ccc(C)cc2)C2CCS(=O)(=O)C2)n1 (stereo not drawn)	0.13	1.4
O=C(NCCCN1CCN(C2CCCCC2)CC1)C1=Cc2cc(Br)ccc2OC1	nt	0.39
O=C(Nc1c(C(=O)N2CCN(C(=O)c3ccco3)CC2)oc2ccccc12)c1ccco1	nt	1.6

Of the compounds above, these have a COOH group:
SMILES	CDC25B CDK2 inh	TAR Tat displ
COc1cccc2c1NC(C(=O)O)C1CC=CC21 (stereo not drawn)	0.71	42*
Cc1cc(C)c2c3c1C1C=CCC1CN3C(C(=O)O)C1CC=CC21 (stereo not drawn)	-0.12	-12

Remaining list, next part:
SMILES	CDC25B CDK2 inh	TAR Tat displ
O=C(Nc1cccc(Cl)c1)Nc1nc2c(s1)CCCCCC2	nt	-0.2
O=C(c1cccnc1)N1c2ccccc2Sc2ccccc21	-1.5	-0.45
Fc1ccc(CNc2ncnc3c(-c4ccc(F)cc4)nsc23)cc1	0.02	0.89
CCCCNc1nc(Oc2ccc(=O)n(-c3ccccc3)n2)nc(N2CCOCC2)n1	-0.99	1.4
NC(=O)CSc1nnc(-c2cccnc2)o1	nt	1.4
COc1cc2c(cc1OC)C1=C(C#N)CN(CCc3ccccc3)CN1CC2	2.1	0.19
Cc1cc(C)n(-c2nc3ccccc3nc2Nc2ccc3c(c2)OCCO3)n1	-0.85	1.2
O=C(CSc1nc2ccccc2nc1N1CCCC1)N1CCCC1	0.27	-0.76
Cc1ccccc1-c1nc(SCC(=O)Nc2ccc3c(c2)OCCO3)n2[nH]c(=O)cc2n1	nt	-0.04
COc1cc(OC)cc(-n2c(=O)c3sccc3n(CC(=O)NCC3CCCO3)c2=O)c1 (stereo not drawn)	0.49	nt
COc1ccc(S(=O)(=O)N2CCN(C)CC2)c2ccccc12	0.91	0.79
CCOc1ccc(Cc2cnc(N)nc2N)cc1	-2.6	0.02
Fc1cccc(Nc2ncnc3onc(-c4cc(F)cc(F)c4)c23)c1	nt	1.6
CC1(C)CC(=O)c2cc(C(N)=O)c(=O)oc2C1	-0.93	-0.87
O=C(O)C12CCC(C(=O)O)(CC1=O)C(=O)C2	-0.17	nt
COc1c2c(nc3occc13)C(CCC(C)(C)O)(OC)C(O)CC2 (stereo not drawn)	-4.1	-0.72
Cc1nc(-n2cccc2)sc1C(=O)NCC1CCCO1 (stereo not drawn)	-0.29	0.09
COC(=O)c1ccc(NS(=O)(=O)c2ccc(CN3C(=O)c4cccnc4C3=O)s2)cc1	nt	-0.32
O=c1cc(-c2ccccc2)[nH]c(=S)[nH]1	-1.1	nt
CCCCN(CC)C(=O)C1CCCN(S(=O)(=O)c2c(C)noc2/C=C/c2cccs2)C1 (stereo not drawn)	-0.02	0.11
COc1ccc(OC)c(NC(=O)CSC2=NN3CCCC(=O)N=C3S2)c1	-1.1	nt
c1ccc2c(c1)nc(NC1CCCCC1)c1nnnn12	2.4	1.2
Cc1csc(NC(=O)c2c(O)c3ccccc3[nH]c2=O)n1	0.82	nt
CCOC(=O)c1cc(=O)c2ccc(OCC(=O)Nc3cccc(C#N)c3)cc2o1	-1.4	nt
CCOC(=O)c1c(NC(=O)NCCN2CCCc3ccccc32)sc2c1CCCC2	-1.6	-1.6
O=C(Nc1ccc2c(c1)OCCO2)N1CCCC(CN2CCc3ccccc3C2)C1 (stereo not drawn)	nt	0.19
CC1CSc2ccc(S(=O)(=O)Nc3cccc(F)c3)cc2NC1=O (stereo not drawn)	nt	0.65
COc1c(Cl)ccc(Cl)c1C(=O)O	nt	1.8
Cc1ccc(-c2nc(C)cc(=O)[nH]2)cc1	-1.9	-0.47
COc1ccc(-c2onc3ccc(Cl)cc23)cc1	-1.8	-1.4
O=C(c1c2c(nc3ccccc13)C(=O)N(C1CCCCC1)C2)N1CCCc2ccccc21	nt	0.7
CC(C)c1ccc2c(c1)[C@H]1OCC[C@H]1[C@@H](c1cccs1)N2	-0.63	0.48
COc1ccccc1-c1nnc2sc(C3COc4ccccc4O3)nn12 (stereo not drawn)	-1.5	3.5
Cc1cc(C)c2c(=O)cc(CSc3nnc(-c4ccco4)n3C)[nH]c2c1	nt	-2.4
O=C(NCc1cccs1)C1CCCN(c2nc3cccnc3s2)C1 (stereo not drawn)	nt	0.67
Cc1ccc(OS(=O)(=O)c2cc(Br)c(Br)s2)c([N+](=O)[O-])n1	0.03	nt
CCn1cc(C)c(C(=O)O)c1CC(=O)O	0.11	1.6
